Anthrax LT inh – blocks cellular internalization of anthrax lethal toxin; Cells, anthrax lethal toxin internalization, FRET ratio (460/530); Potency, µM (doses to about 40 µM), for the others: at the top dose activity change, negative = inhibition, hits mostly inhibitors; 0.67% of 70,000 active; active = well fitted falling ratio curve with the 530 nm signal flat; inconclusive = other ratio curves, or a change in one channel alone; inactive = flat curves in the ratio and both channels; the % refers to the ratio; also: % is scaled to controls: 0 for no effect and ±100 for the full control effect; nearly all actives have a fitted effect of over 50% in size; tested in ME-180 cells; beta-lactamase reporter
SmPrx2 inh – blocks S. mansoni peroxiredoxin 2 enzymatic activity; S. mansoni Prx2 activity coupled to TGR/GSH (TGR is thioredoxin glutathione reductase), NADPH fluorescence loss, qHTS; some inactives read as strong as hits; Potency, µM; 0.07% of 65,000 active; active means full or partial inhibition curve with a strong effect at the top dose; inconclusive means weaker partial or single-point curve; inactive means no accepted curve; also: series up to 57 µM; many of its hits are not listed in these tables
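Enzyme mix: 100 uM NADPH, 25 nM TGR, 700 uM GSH, 50 nM Prx2 in 100 mM phosphate pH 7.4, 10 mM EDTA, 0.01% Tween-20. 15 min RT with compound; NADPH/GSH added, H2O2 starts reaction; NADPH fluorescence read 8 min.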
* marks the source's active call; other numbers are inactive results; u = inconclusive; x = not tested or not shown; [ ] = remark or other dose. Potency is read from the fitted curve at half-maximal effect. Not all compounds are listed. The share of hits here may be higher or lower than overall.

| structure | Anthrax LT inh | SmPrx2 inh |
| --- | --- | --- |
| O=C(O)C1CCCN(C(=O)NCc2ccccc2)C1 (centres undefined) | -2.7% | >57 |
| Cc1cc(C(=O)Nc2cccc(O)c2)c(C)o1 | -15.9% | >57 |
| COC(=O)c1ccc(OCC2c3cc(OC)c(OC)cc3CCN2C(=O)c2ccco2)cc1 (centres undefined) | u | >57 |
| CCCOC(=O)CSc1nnc(-c2cc(OC)c(OC)c(OC)c2)o1 | u | >57 |
| COc1ccc(-c2nc3cnc(N4CCN(C)CC4)nc3n(C3CC3)c2=O)cc1 | u | >57 |
| COc1cc(C(=O)NCc2nnc(SCC(=O)NCc3ccccc3)o2)cc(OC)c1OC | 5.7% | >57 |
| CC(OCc1ccccc1)C(NC(=O)OC(C)(C)C)C(=O)NCC1CCCO1 (centres undefined) | u | >57 |
| CCC(C)[C@@H](C(=O)Nc1ccc2c(c1)OCO2)N1Cc2ccccc2C1=O (some centres undefined) | u | >57 |
| CCCN(CCC)CCCNC(=O)c1ccc2c(c1)N(CC)C(=O)c1ccccc1S2=O (centres undefined) | 16.8% | >57 |
| Cc1ccc(C(=O)OCC(=O)N2CC(=O)Nc3ccccc32)s1 | -3.9% | >57 |
| CCn1c(Cn2nnc(-c3ccccc3)n2)nnc1SCC(=O)Nc1cccc(C)c1C | 3.2% | >57 |
| COC(=O)c1ccc2c(=O)n(C3CCCCC3)c(SCC#N)nc2c1 | 5.1% | >57 |
| COc1cccc(-n2c(SCC(=O)NCCC3=CCCCC3)nc3n[nH]c(C)c3c2=N)c1 | u | >57 |
| CCOC1CCCCC1NS(=O)(=O)c1ccc(Cl)cc1 (centres undefined) | -6.6% | >57 |
| C/C=C/OC(=O)NC(c1ccccc1)[C@@]1(C(=O)OCC)CCCC1=O (some centres undefined) | u | x |
| CC(=O)O[C@@H]1CC(C)=C2[C@H]1[C@H](C)CC[C@H]2/C=C(\C)C(=O)O | -2.3% | x |
| Cc1ccc(C)c(CSc2nnc(-c3ccccn3)n2N)c1 | x | >57 |
| CCCCN(Cc1cc2cc(OC)ccc2[nH]c1=O)C(=O)c1ccco1 | 6.1% | x |
| O=C1[C@H]2[C@H]3[C@H](O)[C@H](O)C/C(=N/OCc4ccccc4)[C@H]3CC[C@@H]2C(=O)N1C[C@@H]1CCCO1 | -1.1%[8 µM] | x |
| CC(=O)OC[C@@H]1O[C@H](CCO/N=C(\C)CCC(=O)OC[C@@H]2O[C@H](C#Cc3ccccc3)C=C[C@@H]2Oc2ccc(C)cc2)C=C[C@@H]1OC(C)=O | 1.8%[8 µM] | x |
| OC1(c2ccc(F)cc2)CCN(Cc2nnnn2Cc2cccs2)CC1 | 0.9% | >57 |
| O=C(CSc1nc2ccccc2c(=O)n1NC(=O)Cc1ccccc1)NCc1ccco1 | u | >57 |
| O=C(CCCN1C(=O)c2ccccc2C1=O)Nc1ccccc1C(=O)N1CCOCC1 | 4.8% | x |
| CCOC(=O)CNc1c(-c2ccc(Cl)cc2)nc2cnccn12 | u | >57 |
| COc1cccc(Nc2ncc3nc(-c4cc(F)cc(F)c4)c(=O)n(C[C@H]4CCCO4)c3n2)c1 | u | >57 |
| COCOc1ccc(Br)cc1C(=O)[C@H]1O[C@H]1c1cccc(OC)c1 | -12.3%[8 µM] | x |
| CN(c1ccccc1C(=O)Nc1cccnc1)S(C)(=O)=O | 6.0% | >57 |
| Cc1cc(Nc2cccc(F)c2)n2nc(C)nc2n1 | -4.5% | >57 |
| CCOC(=O)N1CCN(c2cc(=O)n(-c3cccc(Br)c3)c(=O)[nH]2)CC1 | -6.4% | >57 |
| CCOCCc1nnc(NC(=O)c2cccc(F)c2)s1 | x | >57 |

Among those listed so far, these have a Cl atom.
| structure | Anthrax LT inh | SmPrx2 inh |
| --- | --- | --- |
| CCOC1CCCCC1NS(=O)(=O)c1ccc(Cl)cc1 (centres undefined) | -6.6% | >57 |
| CCOC(=O)CNc1c(-c2ccc(Cl)cc2)nc2cnccn12 | u | >57 |

Additional records follow:
| structure | Anthrax LT inh | SmPrx2 inh |
| --- | --- | --- |
| Cn1c(SCC(=O)NCc2ccc3c(c2)OCO3)nnc1C1COc2ccccc2O1 (centres undefined) | -12.4% | >57 |
| O=C(Nc1cccc(NC(=O)c2ccc(-c3cccc(Br)c3)o2)c1)c1ccco1 | u | >57 |
| Cc1ccc(-c2cc(-c3ccc4c(c3)OCO4)c(C#N)c(N)n2)o1 | u | >57 |
| CC1CN(C(=O)c2cccc(C(=O)N3CC(C)OC(C)C3)c2)CC(C)O1 (centres undefined) | 3.8% | >57 |
| CCCCN(CCCC)CCNC(=O)Cc1nc2c(c(=O)[nH]c(=O)n2C)n1C | -0.4% | >57 |
| CC(=O)N1CC=CC1(CC(C)C)C(=O)NCc1cc(F)cc(C(F)(F)F)c1 (centres undefined) | -4.3% | x |
| Cc1cc(C)nc(NS(=O)(=O)c2ccc(NC(=O)c3ccco3)cc2)n1 | 10.8% | x |
| COc1cc(CCC(=O)OCC(=O)Nc2ncc(Cl)cc2Cl)cc(OC)c1OC | -2.0% | >57 |
| CCn1c2ccccc2c2nnc(SCC(=O)Nc3cc(C)on3)nc21 | 4.6% | >57 |
| CCOc1ccc(C(=O)CCNC(Cc2cnc[nH]2)C(=O)O)cc1 (centres undefined) | 4.4% | x |
| CCc1c(C)[nH]c2ccc(C)cc2c1=O | -19.4% | >57 |
| O=C(c1cnccn1)N1CCC2(CC1)CN(Cc1ccccc1)C2 | -0.9% | >57 |
| CC1SC(=NC(=O)c2ccco2)NC1=O (centres undefined) | -11.5% | >57 |
| COCCn1c(=O)c(-c2cccc(C#N)c2)nc2cnc(Oc3ccccc3)nc21 | -8.6% | >57 |
| O=C(c1ccccc1)c1ccc(Oc2ncccn2)cc1 | -6.5% | >57 |
| CCOC(=O)C(Cc1c(F)cccc1F)(NC(C)=O)C(=O)OCC | -5.3% | >57 |
| Cc1cc(C)c2cc(CN(Cc3cccs3)Cc3nnnn3CC3CCCO3)c(=O)[nH]c2c1 (centres undefined) | -1.9% | >57 |
| Cc1ccc(NC(=O)CSc2nnc(CNC(=O)c3c(F)cccc3Cl)o2)cc1 | 1.8% | >57 |
| CC[C@H](c1ccccc1)c1cc(C(C)(C)C)cc(C(C)(C)C)c1O | u | >57 |
| Cc1ccccc1CCNC(=O)C1CCN(S(=O)(=O)c2ccc(-n3cnnn3)cc2)CC1 | 0.5% | >57 |

The listing continues:
SMILES,Anthrax LT inh,SmPrx2 inh
CSc1nsc(SCC(=O)Nc2c(C)n(C)n(-c3ccccc3)c2=O)n1,0.2%,>57
CCOc1ccc(NC(=O)C2CCN(S(=O)(=O)c3c(C)n[nH]c3C)CC2)cc1,3.7%,>57
CC(=O)OCCn1c(Br)nc2c1c(=O)[nH]c(=O)n2C,-2.4%,>57
CC1Cc2nc(SCC(N)=O)n(Cc3ccccc3)c(=O)c2S1 (centres undefined),0.3%,>57
CCN(CC)S(=O)(=O)c1ccc(NCc2ccccc2)nc1,u,>57
Cc1ccc(-n2nnc3c(=O)n(CC(=O)N4CCC(C)CC4)cnc32)cc1,-1.8%,>57
COc1cc(OC)cc(C(=O)N2CCN(Cc3ccccc3C(F)(F)F)CC2)c1,20.9%,x
COC(=O)c1cc(=O)[nH]c(=O)[nH]1,-8.1%[8 µM],>57
CCOC(=O)c1cc2sc(C)cc2n1CC(=O)Nc1ccc2c(c1)OCCO2,u,>57
O=C(NC1C=CS(=O)(=O)C1)c1sc2ccccc2c1Cl (centres undefined),-11.0%,>57
CCCn1c(=O)c(C(=O)NCc2ccc(OC)c(OC)c2)c(O)c2ccccc21,-6.5%,>57
COc1ccc(-n2c(=O)c(-c3cccs3)nc3cnc(OC)nc32)cc1,u,>57
CCOC(=O)c1cnc(SC2CCc3ccccc3C2=O)nc1N (centres undefined),-23.4%,>57
COC(=O)c1ccc(CSc2nc3ccccc3c(=O)n2Cc2ccco2)o1,u,>57
CCCn1c(CN2CCCCC2C)nc2c1c(=O)n(C)c(=O)n2C (centres undefined),10.2%,>57
COc1ccccc1-c1nnc(SCC(=O)NCc2c(C)c(Cl)cc(C(C)C)c2O)o1,10µM*,>57
COc1cc2c(cc1OC)C(C(=O)N1CCN(c3ccccn3)CC1)C(c1cccs1)N(C)C2=O (centres undefined),10.6%,>57
CCOC(=O)CCCCC(=O)c1[nH]c(=O)[nH]c1CSc1nc(C)cc(C)n1,u,x
Cc1onc(-c2c(Cl)cccc2Cl)c1C(=O)N[C@H]1C(=O)N2[C@H]1SC(C)(C)[C@H]2C(=O)O,6.9%[3.58 µM],>57
COc1ccc(NC(=O)CSc2nnc(-c3cccs3)n2-c2ccccc2)cc1,-2.0%,>57
CN(C)Cc1cc(O)c(O)c(CN(C)C)c1,-4.7%[8 µM],>57
Nc1nnc(N2CCCCC2)s1,-12.2%,>57
C[C@@H](Cc1cccc(C(F)(F)F)c1)NCCCc1ccccc1,u,>57
CCOc1ccccc1NC(=O)NC1(C(=O)N2CCOCC2)CCCCC1,10.9%,>57
CCOC(=O)/C=C/S(=O)(=O)c1ccc(NC(C)=O)cc1,u,u
O=C1CC(c2ccc(F)cc2)CC(O)=C1C=NCCN1CCN(C(=O)Nc2ccccc2)CC1 (centres undefined),u,>57
S=c1[nH]nc(-c2ccncc2)n1CC1CCCO1 (centres undefined),-11.1%,>57
CCNC(=O)N1CCNC(=O)C1CC(=O)Nc1ccc(C(=O)OCC)cc1 (centres undefined),1.0%,>57
COc1ccccc1N1CCN(Cc2ccco2)CC1,-9.5%,>57
Cc1[nH]c2ccccc2c1CCC(N)=O,-9.3%,>57
CCCCOc1ccc(CSc2nncn2N)cc1,-0.6%,>57
COc1ccc(N2C(=O)C3CC(C)=C(C)CC3C2=O)c(OC)c1 (centres undefined),-5.7%,>57
Cc1ccc2c(c1)nc(NCCO)n2C,2.4%,>57
CN1C(=O)CS(=O)c2ccc(C(=O)NCCC3=CCCCC3)cc21 (centres undefined),u,>57
CCn1cnc2c1c(=O)n(CC(=O)Nc1cc(C)on1)c(=O)n2Cc1ccccc1,10.1%,>57
Cc1ccco1,0.3%,x
CCN1CCN(c2ncnc3c2nnn3Cc2ccccc2)CC1,-6.6%,>57
COC(c1ccccc1)C(C)C(OC)C(C)C(OC)C(C)C(C)=O (centres undefined),0.8%[8 µM],x
Clc1ccccc1-c1nn2c(COc3ccccc3)nnc2s1,-7.7%,>57
COc1ccc(OC)c(NC2=NC3(CCCCC3)N=C(N)N2)c1,1.0%,>57
COC(=O)CC[C@@H](C(=O)O)N1C(=O)c2ccccc2C1=O,9.5%,>57
Cc1nnc(N(C(=O)c2cnccn2)c2ccccc2)s1,-5.3%,>57
Cc1noc(C(=O)Nc2c(C)n(C)n(-c3ccccc3)c2=O)c1Cl,-2.9%,>57
O=S1(=O)c2cccc3cccc(c23)N1Cc1nnc(-c2ccccc2Br)o1,8.4%,>57
Nc1nc(SCC(=O)c2ccc(Br)cc2)c2[nH]cnc2n1,0.1%[8 µM],>57
O=C(NCc1ccccn1)c1ccc2ccccc2n1,5.4%,>57
COc1ccc(C(=O)NCc2nnc(SCC(=O)Nc3cc(C)cc(C)c3)o2)cc1OC,-6.1%,>57
COc1ccc(S(=O)(=O)Nc2cc(C)c(O)c(S(=O)(=O)c3ccccc3)c2)cc1,11.4%,>57
CC(=O)c1cnc2cc(-c3ccccc3)nn2c1C,4.6%,>57
O=C(OCCOCCN=C1NS(=O)(=O)c2ccccc21)C1CC(=O)N(c2ccccc2)C1 (centres undefined),-1.8%,x
CN1C(=O)C(Cc2cccc3ccccc23)C(=O)N(C)C1=O,8.6%,>57
O=C(Nc1cnn(Cc2ccc(Cl)cc2)c1)c1cnccn1,4.1%,>57
CC1CCCCN1CCNC(=O)CC1Oc2ccccc2NC1=O (centres undefined),u,>57
COC(=O)NCc1cccc(CNC(=O)OC)c1,0.8%,>57
CCOc1ccc(NC(=O)CCC(=O)n2nc(C)cc2C)cc1,-1.2%,>57
CCOc1cc(C2NC(=O)NC(O)(C(F)(F)F)C2C(=O)c2ccccc2)ccc1OC (centres undefined),-5.8%,x

Carrying on:
SMILES,Anthrax LT inh,SmPrx2 inh
[O]=[Cd],-13.1%,x
C=CCc1ccc(OCC(O)CN2CCCCC2C)c(OC)c1 (centres undefined),u,>57
Cn1ncc(C#N)c1NC(=O)c1nn2cccnc2c1Cl,3.5%,>57
CCC(C)(C(=O)NC1CCCCC1)N(C)C(=O)c1ccccn1 (centres undefined),-10.7%,>57

In the list so far, 6 contain bromine.
SMILES,Anthrax LT inh,SmPrx2 inh
COCOc1ccc(Br)cc1C(=O)[C@H]1O[C@H]1c1cccc(OC)c1,-12.3%[8 µM],x
CCOC(=O)N1CCN(c2cc(=O)n(-c3cccc(Br)c3)c(=O)[nH]2)CC1,-6.4%,>57
O=C(Nc1cccc(NC(=O)c2ccc(-c3cccc(Br)c3)o2)c1)c1ccco1,u,>57
CC(=O)OCCn1c(Br)nc2c1c(=O)[nH]c(=O)n2C,-2.4%,>57
O=S1(=O)c2cccc3cccc(c23)N1Cc1nnc(-c2ccccc2Br)o1,8.4%,>57
Nc1nc(SCC(=O)c2ccc(Br)cc2)c2[nH]cnc2n1,0.1%[8 µM],>57
